# Source: PubChem BioAssay (Broad Institute)
# rRNA inh HTS: reduced GFP signal of wild-type E. coli, primary screen, bacterial rRNA inhibitor project, GFP/RFP fluorescence, OD600, single point; E. coli WT GFP vs humanized-ribosome RFP mutants, 24 h; stronger effect = lower value; DMSO median 0, no signal -100; GFP signal change (wild-type ribosome), % (test concentration not listed); 350,000 tested, 1.6% active; AID 720706, 2013;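 active = significant combined selectivity score with lowered wild-type GFP, culture density cut under 30%, mutant RFP and density less affected; inactive = any of these conditions unmet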; also: one replicate is shown; some compounds called inactive have numbers as strong as hits
# rRNA inh HTS OD600: recorded beside rRNA inh HTS, whose call it bears; OD600 change, %; measured here: OD600 growth;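 optical density of the mix in the first replicate; 0 = DMSO median and -100 = no signal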
# rRNA inh HTS RFP: further read-out of rRNA inh HTS, marked with its call; RFP signal change, %; measured here: RFP humanized mutant strains;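 first replicate; 0 = DMSO median and -100 = no signal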
# Active calls of the source: *; i = inactive; . = no result given; & = joins results of further samples.
SMILES,rRNA inh HTS,rRNA inh HTS OD600,rRNA inh HTS RFP
C[C@@H]1CCCCO[C@@H](CN(C)Cc2ccncc2)[C@@H](C)CN([C@H](C)CO)C(=O)c2cc(NC(=O)Nc3ccc(C(F)(F)F)cc3)ccc2O1,4,6,2.6
C[C@H]1CCCCO[C@@H](CN(C)C(=O)C2CCCCC2)[C@@H](C)CN([C@@H](C)CO)C(=O)c2cc(NC(=O)Nc3ccc(F)cc3)ccc2O1,-1,1,2.2
COC(=O)c1cc2c(c3c4cc(F)ccc4n(S(=O)(=O)c4ccccc4)c13)C(=O)N(Cc1ccc(N(C)C)cc1)C2,9,17,11
CN1c2ccc(-c3ccccc3)cc2[C@@H]2[C@@H](CCN2C(=O)c2ccccc2F)[C@@H]1CO,-14,-53,24
CC(C)NC(=O)Nc1ccc2c(c1)C(=O)N([C@H](C)CO)C[C@@H](C)[C@H](CN(C)Cc1ccc(C(=O)Nc3ccccc3N)cc1)O2,5,11,-1.2
COCC(=O)Nc1ccc2c(c1)C(=O)N(C)C[C@@H](OC)[C@@H](C)CN(C(=O)CC1CC1)[C@H](C)CO2,2,1,-0.7
C[C@@H]1CN([C@H](C)CO)C(=O)c2cccc(NC(=O)Nc3ccc(C(F)(F)F)cc3)c2O[C@H]1CN(C)CC1CCCCC1,1,3,0.1
CN(C)C(=O)c1ccc(-c2ccc([C@@H]3[C@H](CO)N4CCCCN(CCC(F)(F)F)C[C@@H]34)cc2)cc1,-3,-1,1.1
Cc1noc(C)c1S(=O)(=O)Nc1ccc2c(c1)C(=O)N([C@H](C)CO)C[C@H](C)[C@H](CN(C)C(=O)Nc1cccc3ccccc13)O2,-1,1,4.2
CC(C)NC(=O)Nc1ccc2c(c1)CC(=O)N(C)C[C@H](C)[C@H](CN(C)C)O2,3,9,-1.6
C[C@H]1CC=CC[C@H](c2ccccc2)NC(=O)[C@@H](Cc2ccccc2)N(C)C(=O)c2ccccc2O1 (mixture of isomers),-4,-14,-2.9
CN(C[C@@H]1[C@H](c2ccccc2)[C@H](CO)N1Cc1ccccn1)S(C)(=O)=O,3,7,0.0
Cc1noc(C)c1S(=O)(=O)N1CCCCC1c1cc(C(=O)Nc2cccc3c2CCCC3)no1 (stereo unspecified),3,6,-0.6
C[C@@H]1CCCCO[C@@H](CN(C)C(=O)CCCN(C)C)[C@H](C)CN([C@H](C)CO)C(=O)c2cc(NC(=O)NC3CCCCC3)ccc2O1,3,0,-0.8
C[C@@H]1CN([C@H](C)CO)C(=O)c2c(c3ccccc3n2C)-c2ccccc2CO[C@H]1CN(C)C(=O)[C@H]1CCCN1C,0,-8,-1.1
O=C(NCc1ccccc1)[C@@H]1CCCN1C(=O)[C@H]1CCCN1C(=O)c1ccc(OC(F)(F)F)cc1,3,-6,-0.7
CO[C@H]1CN(C)C(=O)c2ccc(NC(C)=O)cc2OC[C@@H](C)N(Cc2ccccn2)C[C@@H]1C,1,2,-1.6
C[C@@H]1CCCCO[C@H](CN(C)C(=O)c2ccncc2)[C@H](C)CN([C@H](C)CO)C(=O)c2cc(NS(=O)(=O)c3cccs3)ccc2O1,-3,-3,-2.2
CO[C@@H]1CN(C)C(=O)c2ccc(NC(=O)CC(F)(F)F)cc2OC[C@H](C)NC[C@H]1C,2,0,2.3
C[C@@H]1CN([C@H](C)CO)C(=O)c2cccc(NS(=O)(=O)c3ccccc3)c2O[C@@H]1CN(C)S(=O)(=O)c1ccc(Cl)cc1,-3,-2,0.4
CO[C@@H]1CN(C)C(=O)c2cc(NC(=O)Nc3ccc(Cl)cc3)ccc2OC[C@H](C)NC[C@H]1C,0&-5&-2,-1&-6&-2,1.1&6.0&3.5
CCCNC(=O)N1C[C@@H](O)COC[C@H]2O[C@H](CC(=O)NCc3ccncn3)CC[C@@H]21,1,-3,-3.0
Cc1ccc(OCc2nc3ccccc3n2C(C(=O)Nc2c(C)cccc2C)C2CC2)cc1 (stereo unspecified),-35,-30,-7.1
C[C@@H]1CCCCO[C@H](CN(C)C(=O)CCCN(C)C)[C@@H](C)CN([C@@H](C)CO)C(=O)c2cc(NC(=O)Nc3cccc4ccccc34)ccc2O1,-39*,8.3*,6.1*

# Results in rRNA inh HTS RFP and rRNA inh HTS OD600 (2 entries from above):
SMILES,rRNA inh HTS RFP,rRNA inh HTS OD600
COCC(=O)Nc1ccc2c(c1)C(=O)N(C)C[C@@H](OC)[C@@H](C)CN(C(=O)CC1CC1)[C@H](C)CO2,-0.7,1
CN(C[C@@H]1[C@H](c2ccccc2)[C@H](CO)N1Cc1ccccn1)S(C)(=O)=O,0.0,7

# Additional entries.
SMILES,rRNA inh HTS,rRNA inh HTS OD600,rRNA inh HTS RFP
CN1CCN(C(=O)C[C@@H]2CC[C@H]3[C@@H](COC[C@@H](O)CN3CC3CC3)O2)CC1,4,16,0.8
Cc1ccsc1C(=O)N1CCC1(C)C(=O)NCc1cccc2ccccc12 (stereo unspecified),-56,-75,-15
Cc1ccccc1S(=O)(=O)N[C@@H]1CC[C@H](CCn2cc(-c3ccccc3)nn2)O[C@H]1CO,-4,-4,0.9
CNC[C@@H]1Oc2ccc(NC(=O)Nc3ccc(C(F)(F)F)cc3)cc2C(=O)N([C@@H](C)CO)C[C@H]1C,0,0,3.0
Cc1cccc(S(=O)(=O)N2C[C@H](O)COC[C@H]3O[C@H](CC(=O)Nc4ccccc4)CC[C@@H]32)c1,i,.,.
C[C@@H]1CCCCO[C@@H](CN(C)C(=O)Nc2ccc(C(F)(F)F)cc2)[C@@H](C)CN([C@H](C)CO)C(=O)c2cc(NS(=O)(=O)c3cccs3)ccc2O1,-3,5,-4.5
CCCC#Cc1ccc2c(c1)O[C@@H](CN(C)C(=O)NCCC)[C@@H](C)CN([C@H](C)CO)S2(=O)=O,-6,-8,-1.1
C[C@H](NC(=O)C[C@H]1C[C@H]2c3cc(N(C)C)ccc3O[C@H]2[C@H](CO)O1)c1ccccc1,1,-3,1.0
CO[C@@H]1CN(C)C(=O)c2ccc(NC(=O)c3cnccn3)cc2OC[C@H](C)NC[C@@H]1C,3,5,-0.7
CCCNC(=O)N(C)C[C@H]1Oc2cc(C#C[C@@H](C)O)ccc2S(=O)(=O)N([C@@H](C)CO)C[C@H]1C,4,8,0.7
O=C(Nc1cc(F)ccc1F)N1CC(=O)N2[C@H](CO)[C@H](c3ccc(C#CC4CCCCC4)cc3)[C@H]2C1,2,-3,2.8
O=C(Nc1cccc(Cl)c1)N[C@H]1CC[C@H](CCNC(=O)C2CCCCC2)O[C@@H]1CO,-2,-4,2.7
C[C@@H]1CCCCO[C@@H](CN(C)Cc2ccc(C(=O)O)cc2)[C@@H](C)CN([C@@H](C)CO)C(=O)c2cc(NC(=O)Nc3ccc(F)cc3)ccc2O1,0,8,-2.9
CC(=O)N1[C@H](CO)[C@H](c2ccc(-c3cccnc3)cc2)[C@@H]1CNC(=O)C1CC1,2,5,0.4
C[C@@H]1CN([C@H](C)CO)C(=O)c2cc(-c3ccccc3)cnc2O[C@H]1CN(C)C(=O)Nc1ccccc1,-2,2,-0.4
C[C@H]1CN([C@@H](C)CO)C(=O)c2cccc(NC(=O)Nc3ccc4c(c3)OCO4)c2O[C@H]1CN(C)Cc1ccc(C(=O)O)cc1,2,6,-1.5
C[C@H](CO)N1C[C@H](C)[C@H](CN(C)C(=O)Nc2ccc(C(F)(F)F)cc2)Oc2ccc(NC(=O)CCC(F)(F)F)cc2C1=O,-5,-13,1.0
OC[C@@H]1CN(Cc2cccs2)C[C@H](n2cnc3c(NCc4ccc(F)cc4)ncnc32)O1,1,-2,-1.8
C[C@H](CO)N1C[C@H](C)[C@@H](CN(C)Cc2ccncc2)Oc2ccc(NS(=O)(=O)c3ccccc3)cc2C1=O,-4,-3,0.0
COc1ccc(NC(=O)Nc2ccc3c(c2)CC(=O)N([C@H](C)CO)C[C@H](C)[C@@H](CN(C)C(=O)NC2CCCCC2)O3)cc1,1,0,0.3
CO[C@H]1CN(C)C(=O)c2ccc(NS(=O)(=O)c3ccccc3)cc2OC[C@@H](C)N(C(=O)NC(C)C)C[C@H]1C,0,-2,2.2
Cc1ccc(S(=O)(=O)N(C)C[C@@H]2Oc3ncc(C#CC(C)(C)O)cc3C(=O)N([C@H](C)CO)C[C@@H]2C)cc1,5,6,-2.4
COc1ccc(NC(=O)N(C)C[C@H]2OCCCC[C@@H](C)Oc3ccc(NC(=O)c4ccncc4)cc3C(=O)N([C@@H](C)CO)C[C@@H]2C)cc1,-1,4,1.1
Cc1ccc(S(=O)(=O)N(C)C[C@@H]2Oc3ccc(NC(=O)NC(C)C)cc3CC(=O)N([C@@H](C)CO)C[C@H]2C)cc1,-2,1,0.1
C[C@@H]1CN([C@@H](C)CO)S(=O)(=O)c2ccc(C#CC3CC3)cc2O[C@@H]1CN(C)C(=O)c1cnccn1,4,2,-2.1
CCCNC(=O)N1[C@H](CO)[C@@H](c2ccccc2)[C@@H]1CNC(=O)c1ccccc1,-12,-8,-1.7
CCc1nc2c(OCc3cc(Cl)cc(Cl)c3)cccn2c1N(C)C(=O)c1ccccc1F,2,-9,11
CCCNC(=O)[C@H]1[C@H](CO)[C@H]2Cn3c(ccc(-c4ccccc4F)c3=O)[C@H]2N1C(=O)CC,2,11,-2.9
CO[C@H]1CN(C)C(=O)c2ccc(NS(=O)(=O)CC(F)(F)F)cc2OC[C@@H](C)N(Cc2nccs2)C[C@H]1C,1,2,-3.0
C[C@H]1CN([C@@H](C)CO)C(=O)Cc2cc(NS(C)(=O)=O)ccc2O[C@@H]1CN(C)Cc1ccc(Oc2ccccc2)cc1,-1,-18,4.5
COCCNC(=O)C[C@H]1CC[C@H]2[C@@H](COc3ccc(NC(=O)C4CCCC4)cc3C(=O)N2C)O1,-1,3,-2.7
Cc1ccc2nc3n(c(=O)c2c1)-c1cc2ccccc2cc1C(=O)NC3Cc1ccc(O)cc1 (stereo unspecified),1,7,9.4
Cc1cc(C(=O)Nc2ccc3c(c2)C(=O)N(C)[C@@H]2CC[C@@H](CC(=O)NC4CCCC4)O[C@@H]2CO3)no1,-2,-8,-0.6
O=C(c1cccnc1)N1CC2(C1)[C@H](c1ccccc1)[C@H](CO)N2C(=O)CC1CC1,-3,13,-2.2
CCOC(=O)N(C)C[C@H]1OCc2ccccc2-c2ccccc2C(=O)N([C@@H](C)CO)C[C@@H]1C,0,5,-3.1
COc1ccc(S(=O)(=O)N[C@@H]2CC[C@H](CC(=O)NCCc3ccccc3)O[C@H]2CO)cc1,0,6,0.3

# Arranged by the number under rRNA inh HTS OD600 (falling): 3 from the list above.
SMILES,rRNA inh HTS,rRNA inh HTS OD600,rRNA inh HTS RFP
Cc1ccc2nc3n(c(=O)c2c1)-c1cc2ccccc2cc1C(=O)NC3Cc1ccc(O)cc1 (stereo unspecified),1,7,9.4
COCCNC(=O)C[C@H]1CC[C@H]2[C@@H](COc3ccc(NC(=O)C4CCCC4)cc3C(=O)N2C)O1,-1,3,-2.7
Cc1cc(C(=O)Nc2ccc3c(c2)C(=O)N(C)[C@@H]2CC[C@@H](CC(=O)NC4CCCC4)O[C@@H]2CO3)no1,-2,-8,-0.6

# Profiles from above.
# C[C@@H]1CN([C@@H](C)CO)S(=O)(=O)c2ccc(C#CC3CC3)cc2O[C@@H]1CN(C)C(=O)c1cnccn1 is listed with rRNA inh HTS = 4; rRNA inh HTS OD600 = 2; rRNA inh HTS RFP = -2.1
# COCCNC(=O)C[C@H]1CC[C@H]2[C@@H](COc3ccc(NC(=O)C4CCCC4)cc3C(=O)N2C)O1 is listed with rRNA inh HTS = -1; rRNA inh HTS OD600 = 3; rRNA inh HTS RFP = -2.7
# O=C(c1cccnc1)N1CC2(C1)[C@H](c1ccccc1)[C@H](CO)N2C(=O)CC1CC1 is listed with rRNA inh HTS = -3; rRNA inh HTS OD600 = 13; rRNA inh HTS RFP = -2.2

# Going on with the list.
SMILES,rRNA inh HTS,rRNA inh HTS OD600,rRNA inh HTS RFP
COc1ccc(-c2ccc([C@H]3[C@H](CO)N4C(=O)CN(C(=O)c5ccccc5)C[C@@H]34)cc2)cc1,2,1,-0.4
C[C@@H]1CN(C)C(=O)c2cccnc2O[C@H]1CN(C)C,6,2,2.4
O=C(c1ccccc1)N1CC[C@H]2[C@H](CO)Nc3ccc(C#Cc4cccnc4)cc3[C@H]21,-5,9,-11
C[C@@H]1CCCCO[C@H](CN(C)Cc2ccc(C(=O)Nc3ccccc3N)cc2)[C@H](C)CN([C@H](C)CO)C(=O)c2cc(N(C)C)ccc2O1,5,2,2.2
O=C(NCC1CCCCC1)[C@H]1[C@H](CO)[C@H]2Cn3c(ccc(-c4ccccc4F)c3=O)[C@@H]1N2,-1,1,1.5
C/C=C/c1ccc([C@H]2[C@@H](CO)N3C(=O)CN(C(=O)Nc4ccc(OC)cc4)C[C@@H]23)cc1,-1,-4,2.5
COCC(=O)N(C)C[C@H]1Oc2cc(-c3cccc(F)c3)ccc2S(=O)(=O)N([C@H](C)CO)C[C@H]1C,-7,-9,-1.8
C[C@@H]1CN([C@@H](C)CO)C(=O)c2ccccc2-c2ccccc2CO[C@H]1CN(C)S(=O)(=O)c1cccs1,2,3,0.7
C[C@@H]1CN([C@H](C)CO)C(=O)c2cccc(NC(=O)Nc3cccc4ccccc34)c2O[C@@H]1CN(C)S(=O)(=O)c1ccccc1,-2,-1,2.2

# The list is partial. The share of hits here may be higher or lower than overall.
